# BJeLR viability: kills HRASV12-expressing BJeLR cells | AID 1554 | BJeLR (HRASV12) viability, CellTiter-Glo ATP luminescence, 48 h; reference of the scale not given here | inhibition, % (test concentration not listed) | hit rate 0.17% among 300,000;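 active means replicate mean above 50%; inconclusive means above 50% but judged a plate artefact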;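 further: 50 nL library stock added to about 25 µL; numbers are from one replicate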
# PrP UTR inh: inhibition of PrP 5' UTR reporter expression; cell-based PrP 5' UTR mRNA reporter, plate reader; inhibition, % (no concentration beside the values); hit rate 0.35% among 340,000; AID 488862;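 active means every replicate at 50% or more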;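 further: 0 = median of the neutral control wells; tested in H4 reporter cells; numbers are from one replicate; inactives centre near -14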
# RN4220 kill: S. aureus RN4220 growth inhibition. OD600, 16 h. inhibition, % (no concentration beside the values). hit rate 0.33% among 330,000;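 active means z-score of -3 or lower and OD600 up to 0.18 on both plates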;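 further: plate controls were untreated cells for no effect and reference antibiotic for full effect; stock transfer was 100 nL into about 80 µL; one replicate is shown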
# Bead autofluor: compound fluorescence in toxin protease inhibitor counterscreen; compound autofluorescence counterscreen, microsphere flow cytometry; hits give high values; fluorescence intensity (concentration not given with the values); hit rate 3.1% among 360,000;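 active means at least 3 SD above the mean of all compounds, about 16000 in these data; inconclusive means too few beads counted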;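 further: 100 nL of 1 mM stock went into each well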
# Sa ugtP lethal: compounds lethal to S. aureus RN4220 ugtP deletion mutant | AID 1259309 | OD600 growth, 16 h; some inactives read as strong as hits | growth inhibition, % (concentration not given with the values) | hit rate 0.54% among 330,000;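 active means z-score under -3 and OD600 up to 0.15 on both plates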;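 further: plate controls were untreated wells for no effect and antibiotic for full effect; wells of about 80 µL received 100 nL stock; the first replicate is given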
# Mtb hypoxia inh: reduces hypoxia-regulated biosensor signal in M. tuberculosis; M. tuberculosis hypoxia-regulated fluorescent reporter, fluorescence; fluorescence inhibition, % (no concentration beside the values); hit rate 0.1% among 300,000; AID 1159583;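 active means 35 to 45% if threefold the growth effect, above 45% if 1.5-fold the growth effect; inactive means the rest, general growth blockers included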;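 further: wells of about 50 µL received 100 nL stock; 0% = vehicle wells and 100% = reference inhibitor wells; whole bacteria with a GFP reporter of the hypoxia response; strong numbers were not always called active; many hits fall short of the cut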
# Mtb hypoxia inh growth: recorded beside Mtb hypoxia inh, whose call it bears; growth inhibition, %; measured here: M. tuberculosis growth (absorbance);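 0% = vehicle and 100% = reference antibiotic; read after six days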
# An asterisk follows results filed as active; ? = inconclusive; · = not tested or not shown. Compounds were not picked by outcome (roughly 4% active in at least one column).
SMILES	BJeLR viability	PrP UTR inh	RN4220 kill	Bead autofluor	Sa ugtP lethal	Mtb hypoxia inh	Mtb hypoxia inh growth
CCOC(=O)C1=C(COC(=O)/C=C/c2cc(OC)c(OC)c(OC)c2)NC(=O)NC1C (stereo not drawn)	-3	-6	2.6	6458	8	18	0
FC(F)Oc1ccc(-c2c[n+]3c(n2-c2ccccc2)CCCCC3)cc1	5	-24	3.9	5625	10	11	5
O=C(Nc1oc2ccc(Cl)cc2c(=O)c1-c1ccc(F)cc1)c1ccco1	8	-13	2.1	4842	7	1	-2
O=C(c1cccc(COc2ccc(Cl)cc2Cl)c1)N1CCN(c2ccccn2)CC1	0	-148	0.3	8385	-31	-2	12
CC(=O)N1N=C2/C(=C/c3ccccc3)CCCC2C1c1ccccc1 (stereo not drawn)	7	-21	6.2	4661	12	12	9
Cc1ccc(C(=O)c2nc(C(=O)NCCO)nc3ccccc23)cc1	·	1	11	3954	-1	13	12
O=C(NN=Cc1cccc(Oc2ccccc2)c1)c1ccc(O)cc1O	·	·	-2.9	·	17	8	5
O=C(c1cccc(Oc2ccc([N+](=O)[O-])cc2)c1)N1CCOCC1	-6	-9	4.0	6751	8	17	13
O=C(O)c1ccccc1C(=O)c1ccc(N2CCOCC2)c([N+](=O)[O-])c1	-2	-24	2.9	2689	-2	6	7
COc1ccc2cc3c(N)nn(C(=O)c4cccc(F)c4)c3nc2c1	7	4	3.2	3378	1	0	3
COc1ccc(-c2cc(C(=O)NCc3ccccc3)no2)cc1OC	3	-4	0.3	21267*	-3	-4	-13
Cc1sc(NC(=O)c2cccs2)nc1-c1ccccc1	-11	-30	-1.0	8480	-14	0	2
CCCN1CCN(C(=O)CCn2c(=O)c3cccn3c3cccnc32)CC1	-7	-1	-1.7	8814	-1	-5	-10
CC(=O)Nc1ccc(-c2csc(NC(=O)CC(NC(C)=O)c3ccccc3)n2)cc1 (stereo not drawn)	11	-34	0.7	3022	-1	15	7
CN=C(C)/C(C(=O)OC)=C(/O)c1c(F)cccc1F	-3	-6	4.6	4820	5	4	4
O=C(NCC(=O)N(Cc1cccs1)C(C(=O)NC1CCCC1)c1ccncc1)c1ccco1 (stereo not drawn)	-3	-6	0.2	3552	-3	·	·
CCN(CC(=O)Nc1ccc(OC)cc1)C(=O)c1ccc2ccccc2c1	·	-12	5.3	3558	11	9	8
CC(=O)Nc1ccc(NC(=O)CSc2nnc(-c3cccs3)n2C)cc1	-2	-17	3.9	3034	3	5	-3
O=C(CN1C(=O)c2ccccc2S1(=O)=O)NC1CCCCC1	3	2	-0.8	3372	2	14	3
O=C(O)COCC(=O)Nc1ccc(-n2cnnn2)cc1	6	-17	0.9	4367	9	18	4
CCOc1ccc(-n2c(CC)nc3ccccc3c2=O)cc1	-9	-9	0.9	7582	-10	0	11
COc1cc(/C=C/C(=O)OCc2csc(CC(=O)Nc3ccc(C)cc3)n2)ccc1OCC#N	·	3	-3.7	?	-2	-10	-2
CN(C)c1ccc(CN2CCC(C(N)=O)CC2)cc1	-10	-28	6.7	4194	9	14	3
O=C(CNC(=O)c1ccc(Br)o1)Nc1ccncc1	2	-15	6.1	4362	12	1	-5
CCOc1ccc2nc(N=NC3=C(O)CC(C)(C)CC3=O)sc2c1	0	-30	1.6	3908	-5	7	12
COc1ccc(CC(N)=NOC(=O)Cc2ccccc2)cc1OC	·	·	6.8	·	1	10	6
O=C1CCN(Cc2ccc([N+](=O)[O-])cc2)CCN1[C@H](CO)Cc1ccccc1	-16	-14	-9.0	4051	-6	7	7
CC(C)(C)c1ccc(C(=O)N2CCC(=O)N(C(COCc3ccccc3)Cc3ccccc3)CC2)cc1 (stereo not drawn)	11	-13	-0.9	3780	9	13	7
CCOc1ccc(-c2nc(C#N)c(N3CCN(C)CC3)o2)cc1	0	6	-1.9	9153	-2	19	-7
CS(=O)(=O)N(CC(=O)NCCSc1ccccn1)c1ccc(F)cc1	-13	52*	4.0	3340	4	10	5

# In another format: entries from further up.
SMILES: CC(=O)N1N=C2/C(=C/c3ccccc3)CCCC2C1c1ccccc1 (stereo not drawn)
  BJeLR viability = 7; PrP UTR inh = -21; RN4220 kill = 6.2; Bead autofluor = 4661; Sa ugtP lethal = 12; Mtb hypoxia inh = 12; Mtb hypoxia inh growth = 9

SMILES: O=C(Nc1oc2ccc(Cl)cc2c(=O)c1-c1ccc(F)cc1)c1ccco1
  BJeLR viability = 8; PrP UTR inh = -13; RN4220 kill = 2.1; Bead autofluor = 4842; Sa ugtP lethal = 7; Mtb hypoxia inh = 1; Mtb hypoxia inh growth = -2

SMILES: CCOc1ccc(-c2nc(C#N)c(N3CCN(C)CC3)o2)cc1
  BJeLR viability = 0; PrP UTR inh = 6; RN4220 kill = -1.9; Bead autofluor = 9153; Sa ugtP lethal = -2; Mtb hypoxia inh = 19; Mtb hypoxia inh growth = -7

# Continued.
SMILES	BJeLR viability	PrP UTR inh	RN4220 kill	Bead autofluor	Sa ugtP lethal	Mtb hypoxia inh	Mtb hypoxia inh growth
Cc1nn(Cc2ccccc2Cl)c(C)c1NC(=O)c1ccn(C)n1	-6	-1	4.7	7533	16	11	10
COc1ccc(CNC(=O)CSc2ncn[nH]2)cc1	8	-3	-17	3191	-5	-3	1
Cc1cc(C(=O)NCc2ccccc2F)cs1	-26	-10	27	7807	10	·	·
CCOC(=O)C1Cc2c([nH]c3ccccc23)C(C)N1 (stereo not drawn)	-12	-27	2.5	12103	-4	-6	-20
Nc1c(C(=O)N2CCCCCC2)oc2ccccc12	1	-28	8.5	3971	20	12	5
COc1ccc(OC)c(/C=N/NC(=O)CNC(=O)c2ccc(S(=O)(=O)N3CCOCC3)cc2)c1	0	-19	·	2645	·	·	·
CC(NC(=O)c1nc[nH]c1C(=O)NC(C)c1ccccc1)C(=O)OC(C)(C)C (stereo not drawn)	·	·	6.4	·	4	18	10
CN(C)c1ccc(C=Nn2c(-c3ccccc3Br)n[nH]c2=S)cc1	·	·	5.6	·	14	12	10
CCCCn1nc2cc(C(=O)NCc3ccc(OC(F)(F)F)cc3)ccc2c1OC	-4	-2	8.2	3880	6	17	5
O=C(CN(c1ccc(Cl)cc1)S(=O)(=O)c1ccccc1)NN=Cc1ccco1	·	·	2.9	·	3	5	4
Cc1cc(F)ccc1NS(=O)(=O)c1c(C)nc2scc(C)n2c1=O	-6	-19	7.8	2982	7	8	6
Cc1cc(C)nc(SCc2nnc(SCC(=O)Nc3cc(C(F)(F)F)ccc3Cl)o2)n1	3	-24	0.2	13298	2	-1	-7
COc1ccc(Oc2cc(NC(=O)c3nn(C)cc3[N+](=O)[O-])cc([N+](=O)[O-])c2)cc1	-2	4	-5.2	11582	31	-3	2
CC1Cc2ccccc2N1C(=O)c1ccc2c(c1)nnn2C (stereo not drawn)	-3	-20	0.1	3093	9	·	·
O=[N+]([O-])c1ccc(N2CCSCC2)cc1O	-5	-13	3.1	3888	4	-1	1
Cc1nnc(SCC(=O)N2CCN(S(=O)(=O)c3ccc(Cl)cc3)CC2)[nH]c1=O	16	-19	-13	3310	-10	17	8
O=C(N/N=C/c1c[nH]c2ccc(Br)cc12)C1CC1	2	-10	·	3994	·	·	·
CCOc1ccccc1NC(=O)c1ccccc1-c1nc(-c2ccccc2)no1	-17	-4	-4.9	3028	15	-1	-2
CC(=O)c1cccc(NC(=O)COC(=O)c2cccc(N3C(=O)c4ccccc4C3=O)c2)c1	-2	-32	4.7	2191	1	18	1
COC(=O)c1ccc(COC(=O)c2ccc(SC)cc2OC)cc1	5	-32	4.5	2208	9	2	-1
CN(c1cccc(NC(=O)Cc2ccccc2)c1)S(C)(=O)=O	-3	-49	6.1	5866	15	3	1
CN(C)c1ccc(/C=C2\CC3C4CC=C5CC(O)CCC5(C)C4CCC3(C)C2=O)cc1 (stereo not drawn)	-3	-1	·	7776	·	·	·
O=C(c1ccc(Cl)c(S(=O)(=O)N2CCCCCC2)c1)N1CCCC(C(F)(F)F)C1 (stereo not drawn)	1	7	0.9	4559	-1	-1	-2
O=C(O)CN1C(=O)/C(=C\c2cc(Br)ccc2OCc2ccccc2F)SC1=S	7	-9	11	4224	15	14	4
N/C(=N\OC(=O)Nc1ccccc1)c1ncc(C(F)(F)F)cc1Cl	-9	-54	·	3360	·	·	·
CN(C)c1[nH]c(=O)c(C#N)c2c1CCN2Cc1ccccc1	6	-8	1.7	3017	4	·	·
CN1CCCN(C(=O)COc2ccc(F)cc2Cl)CC1	12	-11	1.8	5697	-1	2	1
CCC1CCCCN1c1ccc([N+](=O)[O-])cc1/C=N/NC(=O)Cn1c2ccccc2c(=O)c2ccccc21 (stereo not drawn)	0	-10	·	8572	·	·	·
O=C(Cc1ccccc1)NNC(=O)c1ccc(NC(=O)c2ccccc2)cc1	-4	-9	4.7	4347	1	9	2
CC(=O)c1ccc(NC(=S)N2CCN(S(=O)(=O)c3ccc(F)cc3)CC2)cc1	2	-14	0.9	5899	1	13	4
CCCc1cc(NC(=O)COC(=O)c2ccc(O)cc2O)n(-c2ccccc2)n1	·	-19	-0.2	3830	-1	9	32
N#CCCN(C(=O)COC(=O)CCN=C1NS(=O)(=O)c2ccccc21)c1ccc(F)cc1	2	-13	0.8	5563	4	7	-1
CC1CC(=O)N(CC(=O)NC2CCCCC2)c2ccccc2S1 (stereo not drawn)	3	-3	3.7	5057	2	5	0
Cc1ccc(OCCCSc2n[nH]c(N)n2)cc1	-12	-16	0.6	2537	22	0	6
N#Cc1ccccc1OCC(=O)NCC(c1ccc(F)cc1)N1CCOCC1 (stereo not drawn)	·	-18	-0.6	5725	8	10	-3
O=C(c1ccco1)N1CCN(C(=O)c2ccc(CS(=O)c3cccc(Cl)c3)o2)CC1 (stereo not drawn)	-2	-29	5.2	5037	-2	5	7
O=c1c2ccccc2nc2n1CCCS2	4	-23	7.4	10504	2	5	3
CCOC(=O)c1cc(-c2ccccc2)n(CC(=O)Nc2cccc(OC)c2)c1C	8	-14	-1.4	2458	-2	6	3
O=C(NCCCN1CCOCC1)c1ccc(-n2nc(C(F)(F)F)cc2-c2cccs2)cc1	5	-4	0.0	3846	-7	18	17
Cc1c([N+](=O)[O-])ccc(S(=O)(=O)N2CCC(C(N)=O)CC2)c1C	-2	-90	-2.5	2042	-2	-5	5
O=C(NN=Cc1cn(Cc2ccccc2)c2ccccc12)c1cccnc1	·	·	-1.1	·	3	7	2
CCOc1ccc(NC(=O)Cc2ccccc2)cc1	-1	-51	4.0	1949	5	-3	5
CCn1cc(CNc2nc3nonc3nc2N2CCCCC2)cn1	-10	6	6.8	3781	4	1	3
C/C(=N\NC(=O)c1nnn(-c2nonc2N)c1CN(C)c1ccccc1)c1ccc(O)cc1	4	-29	·	5422	·	·	·
Cc1ccsc1C=NNC(=O)c1cccnc1	·	·	0.3	·	2	14	2
CC(NC(=O)c1ccco1)C(c1cccs1)N1CCN(c2ccccc2F)CC1 (stereo not drawn)	-2	-16	2.1	7870	13	10	-6
O=C(CCCc1c[nH]c2ccccc12)NCc1ccccc1C(F)(F)F	0	-10	1.3	3799	-7	14	9
CCCCCN(C(=O)CCC(=O)OCCOc1cccc(Cl)c1)c1c(N)n(CCCC)c(=O)[nH]c1=O	9	-24	2.2	·	-1	4	1
O=C1NC(=Nc2cccnc2)S/C1=C\c1cccc(F)c1	-4	-15	3.4	·	-4	15	4
CC1CCCC(NC(=S)NC(=O)c2ccco2)C1C (stereo not drawn)	·	-17	-11	8553	-16	13	11
CCCNC(=O)CN1CCN(c2cc3ccccc3c(Cl)n2)CC1	-13	1	2.3	5601	4	4	15
CC(C)C(c1nnnn1C(C)(C)C)N1CCOCC1 (stereo not drawn)	-3	-23	2.9	3708	8	3	5
COc1ccc(-c2nnn(CC(=O)NCc3ccc4c(c3)OCO4)n2)cc1OC	-2	-31	-0.6	4102	1	3	-1
COc1cccc(NC(=O)C(=O)N/N=C/c2ccc3c(c2)OCO3)c1	2	-39	·	5514	·	·	·
O=C(O)c1cc(-c2cccs2)nc2ccc(F)cc12	-1	-17	5.6	3995	-1	-1	9
O=C(NN=Cc1ccc2nccnc2c1)c1ccncc1	·	·	0.4	·	7	12	14
COc1ccc(CN2CCNC(=O)C2CC(=O)O)cc1OC (stereo not drawn)	3	-19	1.8	5235	7	6	4

# Bioassay records from PubChem.
